Bioassay records deposited in PubChem BioAssay by Southern Research Institute.
Mtb H37Rv: Mycobacterium tuberculosis H37Rv growth inhibition, putative kinase inhibitor library, confirmatory dose response (AID 2842); M. tuberculosis H37Rv growth inhibition; higher % means a stronger effect; some inactives read as strong as hits; inhibition, % at 10 µg/mL; hits with a dose series show IC90 in µg/mL; 24,000 compounds, 5.2% hits;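 active means confirmed in a dose series; about a fifth of its hits are not listed in these tables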;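 further: bacteria incubated one week before Alamar blue readout; 0% = bacteria only wells and 100% = bacteria with high antibiotic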
The depositor's hits bear a star.

The first 2 entries, ahead of the listing:
> CSc1ccc2nc(NCc3ccccc3)sc2c1
  Mtb H37Rv = 9%
> CC(=O)Nc1ccc(OCC(O)Cn2nc(C)c(C(C)=O)c2C)cc1 (stereo unspecified)
  Mtb H37Rv = -11%

The list itself, from the start:
> CSc1ccc2nc(NCc3ccccc3)sc2c1
  Mtb H37Rv = 9%
> CC(=O)Nc1ccc(OCC(O)Cn2nc(C)c(C(C)=O)c2C)cc1 (stereo unspecified)
  Mtb H37Rv = -11%
> CCOC(=O)Cn1c(N2CCCCCC2)nc2c1c(=O)[nH]c(=O)n2C
  Mtb H37Rv = 15%
> O=C(N/N=C/c1c[nH]c2ccccc12)c1cc(-c2cccc([N+](=O)[O-])c2)n[nH]1
  Mtb H37Rv = 40%
> Nc1c(C(=O)c2ccccc2)sc2nc3c(c(-c4ccco4)c12)CCCCC3
  Mtb H37Rv = -1%
> Cc1c(Cl)cccc1NS(=O)(=O)c1cc2c3c(c1)CCC(=O)N3CCC2
  Mtb H37Rv = -2%
> CC(C)(C)NC(=O)CSc1nc(N)c(NC(=O)c2ccccc2F)c(=O)[nH]1
  Mtb H37Rv = 0%
> Cc1cccc(Cn2c(=O)c3c(nc4n(Cc5ccco5)c(C)cn34)n(C)c2=O)c1
  Mtb H37Rv = -4%
> Nn1c(SCC(=O)Nc2ccccc2)nnc(Cc2ccc(Cl)cc2)c1=O
  Mtb H37Rv = 11%
> Cc1cc(OC(=O)c2ccccc2Br)c([N+](=O)[O-])c(=O)[nH]1
  Mtb H37Rv = -3%
> CCCOc1cc(=O)[nH]c2ccc(OC)cc12
  Mtb H37Rv = -2%
> O=C(O)CCCN1C(=O)C2C3CC(C2C1=O)C1C(c2ccc(F)cc2)c2sc(=O)[nH]c2SC31 (stereo unspecified)
  Mtb H37Rv = -10%
> COc1ccc2sc(Nc3ccc(Br)cc3)nc2c1
  Mtb H37Rv = 11%
> CC(C)Cn1c(SCC(=O)O)nc2c1c(=O)[nH]c(=O)n2C
  Mtb H37Rv = 6%
> Cc1ccc2c(c1)C(c1ccccc1)N(C(=O)c1ccccc1I)CC(=O)N2 (stereo unspecified)
  Mtb H37Rv = 36%
> COC(=O)c1sc2ccccc2c1NC(=O)CN1C(=O)CCC1=O
  Mtb H37Rv = 1%
> Cc1nnc(SCC(=O)NCc2ccccc2Cl)n(N)c1=O
  Mtb H37Rv = -5%
> CCOC(=O)c1ccccc1NC(=O)CSc1nnc(C)c(=O)n1N
  Mtb H37Rv = -4%
> CCC(=O)Nc1c(C(=O)Nc2ccc(Cl)cc2)oc2ccccc12
  Mtb H37Rv = 11%
> CN(C)S(=O)(=O)c1n[nH]c(=O)[nH]c1=O
  Mtb H37Rv = -17%
> CCc1ccc(-c2nnc3c4cc5c(cc4n(Cc4ccccc4)cc2-3)OCO5)cc1
  Mtb H37Rv = 46%
> O=c1oc2ccccc2c(O)c1C=Nc1ccc(F)cc1
  Mtb H37Rv = -4%
> COc1ccc(NC(=O)CSc2nccn(-c3ccc(Cl)cc3)c2=O)c(OC)c1
  Mtb H37Rv = -1%
> Cn1cnnc1SCC(=O)Nc1nnc(-c2ccc(F)cc2)s1
  Mtb H37Rv = -7%
> CCOC(=O)c1c(NC(=O)c2cccc(Cl)c2)sc2c1CC(C)(C)NC2(C)C
  Mtb H37Rv = -2%

Overlap with the part before: four compounds, followed by the next part.
> O=c1oc2ccccc2c(O)c1C=Nc1ccc(F)cc1
  Mtb H37Rv = -4%
> COc1ccc(NC(=O)CSc2nccn(-c3ccc(Cl)cc3)c2=O)c(OC)c1
  Mtb H37Rv = -1%
> Cn1cnnc1SCC(=O)Nc1nnc(-c2ccc(F)cc2)s1
  Mtb H37Rv = -7%
> CCOC(=O)c1c(NC(=O)c2cccc(Cl)c2)sc2c1CC(C)(C)NC2(C)C
  Mtb H37Rv = -2%
> CCCSc1nc2c(c(=O)[nH]1)C(c1ccncc1)C1=C(CCCC1=O)N2 (stereo unspecified)
  Mtb H37Rv = -1%
> COc1ccc2nc(Nc3nc4c(s3)CCCC4)sc2c1
  Mtb H37Rv = 21µg/mL*
> O=C1Nc2ccccc2N(C(=O)c2ccncc2)N1
  Mtb H37Rv = 59%
> CCOC(=O)COc1ccc2c(-c3cc4cc(Cl)ccc4oc3=O)cc(=O)oc2c1
  Mtb H37Rv = -14%
> CCOc1ccc(C(=O)Nc2nnc(C34CC5CC(CC(C5)C3)C4)s2)cc1
  Mtb H37Rv = 10%
> CC1(C)Cc2c(sc(NC(=O)c3ccc(-c4ccccc4)cc3)c2C(N)=O)C(C)(C)N1
  Mtb H37Rv = 80%
> C=CCn1c(SCC(=O)O)nnc1-c1ccc([N+](=O)[O-])cc1
  Mtb H37Rv = -33%
> COc1ccc(-n2c(=O)[nH]c3c(C(N)=O)nc(-c4cccc(Br)c4)nc32)cc1
  Mtb H37Rv = 80%
> COc1ccc(C2CC(c3cccc(NS(C)(=O)=O)c3)=NN2S(=O)(=O)c2ccc(C)cc2)cc1 (stereo unspecified)
  Mtb H37Rv = 6%
> Cc1ccccc1-c1nnc(NC(=O)c2c(F)cccc2F)s1
  Mtb H37Rv = 9%
> CC1=C(C(=O)Nc2ccccc2Cl)C(c2cccc(Cl)c2)NC(=O)N1 (stereo unspecified)
  Mtb H37Rv = 1%
> O=C(Nc1nnc(-c2ccc(F)cc2)o1)C1CCN(S(=O)(=O)c2ccc(F)cc2)CC1
  Mtb H37Rv = 72%
> C/C=C/C(=O)Nc1c(C(=O)Nc2ccc(F)c(F)c2)oc2ccccc12
  Mtb H37Rv = -3%
> CC(=O)N1CCc2c(sc(NC(=O)c3nc4ccccc4s3)c2C(N)=O)C1
  Mtb H37Rv = 74%
> COC(=O)c1ccc(C(=O)N=c2sc3cc(F)ccc3n2C)cc1
  Mtb H37Rv = -9%
> COc1cccc(Nc2nc(Nc3ccc(C)c(Cl)c3)c3nccnc3n2)c1
  Mtb H37Rv = 12%
> Cc1cccc(Cn2cc(C(=O)c3ccc(C)c(C)c3)c(=O)c3cc4c(cc32)OCCO4)c1
  Mtb H37Rv = -1%
> CC(Sc1nncn1C)C(=O)Nc1nnc(-c2ccc(Br)cc2)s1 (stereo unspecified)
  Mtb H37Rv = 0%
> O=C(Nc1nc2c(cc3c4c(cccc42)CC3)s1)c1cc(-c2cccs2)nc2ccccc12
  Mtb H37Rv = 5%
> COc1ccc(OC)c2[nH]c(=O)c(CCNC(=O)CCC3CCCCC3)cc12
  Mtb H37Rv = 7%
> COc1ccc(-n2ccnc(SCc3ccccc3F)c2=O)cc1OC
  Mtb H37Rv = 0%
> COc1ccc(C(=O)CSc2nc(-c3ccc([N+](=O)[O-])cc3)nc3c2c(=O)n(C)c(=O)n3C)cc1
  Mtb H37Rv = 9%
> O=C(NC(=S)N1CCOCC1)C(c1ccccc1)c1ccccc1
  Mtb H37Rv = 0%
> CCc1cccc(OCC(O)Cn2c(N3CCCCC3)nc3c2c(=O)[nH]c(=O)n3C)c1 (stereo unspecified)
  Mtb H37Rv = -24%
> Cn1c(=O)c2c(SCC(=O)N3CCCCC3)nc(-c3ccco3)nc2n(C)c1=O
  Mtb H37Rv = 14%

> CCCCC(=O)Nc1c(C(=O)Nc2ccc(F)c(Cl)c2)oc2ccccc12
  Mtb H37Rv = -9%
> CCc1ccc(-c2nc(C(N)=O)c3[nH]c(=O)n(-c4ccccc4F)c3n2)cc1
  Mtb H37Rv = 1%
> Cc1ccc(C)c(-c2csc(NC(=O)c3ccc(S(=O)(=O)N4CCCCC4)cc3)n2)c1
  Mtb H37Rv = 16%
> CN1C(=O)c2cccc(NC(=O)c3cc(-c4cccs4)nc4ccccc34)c2C1=O
  Mtb H37Rv = -10%
> Cc1ccc(Cn2c(SCC(C)O)nc3c2c(=O)[nH]c(=O)n3C)cc1 (stereo unspecified)
  Mtb H37Rv = 18%
> CCOC(=O)c1ccc2nc(NC(=O)c3nc4ccccc4s3)sc2c1
  Mtb H37Rv = 1%
> CCOc1cccc2sc(NC(=O)c3ccc(Cc4ccccc4)cc3)nc12
  Mtb H37Rv = 65%
> Cc1ccc2cc(CCNC(=O)CCC3CCCC3)c(=O)[nH]c2c1
  Mtb H37Rv = -4%
> O=C(Nc1nnc(-c2ccc(Cl)cc2)s1)c1ccc([N+](=O)[O-])cc1
  Mtb H37Rv = 3%
> CCOC(=O)c1oc2ccccc2c1NC(=O)c1ccc(F)c(F)c1
  Mtb H37Rv = 3%
> COc1ccc(C(=O)Nc2nnc(-c3ccc(C)cc3)s2)c(OC)c1
  Mtb H37Rv = 2%
> O=C(/C=C/c1ccco1)Nc1nncs1
  Mtb H37Rv = -12%
> COc1cccc(C(=O)Nc2nnc(-c3ccccc3C)s2)c1
  Mtb H37Rv = 1%
> CCOc1ccc(N2C(=O)N(Cc3cccc(C#N)c3)C3CS(=O)(=O)CC32)cc1 (stereo unspecified)
  Mtb H37Rv = 2%
> O=C(CSc1nc2c(c(=O)n1-c1ccccc1)SCC2)Nc1ccccc1C(F)(F)F
  Mtb H37Rv = 4%
> Cc1cc2cc(CCNC(=O)C34CC5CC(CC(C5)C3)C4)c(=O)[nH]c2cc1C
  Mtb H37Rv = 10%
> Cc1cccc(-c2nnc(NC(=O)/C=C\c3ccc4c(c3)OCO4)s2)c1
  Mtb H37Rv = -2%
> Cc1ccnc(SCCn2c(N3CCC(C)CC3)nc3c2c(=O)[nH]c(=O)n3C)n1
  Mtb H37Rv = 1%
> COc1cccc2sc(Nc3nc4c(s3)C(=O)CC(C)(C)C4)nc12
  Mtb H37Rv = 7.5µg/mL*
> CN(C)S(=O)(=O)c1ccc(C(=O)Nc2c(C(=O)Nc3ccc(F)c(F)c3)oc3ccccc23)cc1
  Mtb H37Rv = -6%
> COc1cc(OC)cc(C(=O)N2CCN(c3ccc(N4CCOCC4)nn3)CC2)c1
  Mtb H37Rv = -2%
> COc1cccc(C(=O)Nc2cccc(-c3nc4ncccc4o3)c2)c1
  Mtb H37Rv = -18%
> CC1Cc2nc(SCC(=O)Nc3ccc4c(c3)OCO4)n(Cc3ccccc3)c(=O)c2S1 (stereo unspecified)
  Mtb H37Rv = -1%
> CCOC(=O)c1nn(-c2ccc(Cl)cc2)c(=O)c2c(NC(=O)Cc3cccc(C)c3)scc12
  Mtb H37Rv = -2%
> Cn1c(=O)c2c(nc(N3CCOCC3)n2CCSc2nc3ccccc3s2)n(C)c1=O
  Mtb H37Rv = 2%

As entered above.
Result of `Cc1ccc(C)c(-c2csc(NC(=O)c3ccc(S(=O)(=O)N4CCCCC4)cc3)n2)c1` under Mtb H37Rv: 16%
Result of `O=C(CSc1nc2c(c(=O)n1-c1ccccc1)SCC2)Nc1ccccc1C(F)(F)F` under Mtb H37Rv: 4%
Result of `COc1cccc(C(=O)Nc2nnc(-c3ccccc3C)s2)c1` under Mtb H37Rv: 1%
Result of `CCOC(=O)c1nn(-c2ccc(Cl)cc2)c(=O)c2c(NC(=O)Cc3cccc(C)c3)scc12` under Mtb H37Rv: -2%

Further structures.
> CCOC(=O)c1ccc(NC(=O)CSc2ncnc3c2cnn3-c2ccccc2)cc1
  Mtb H37Rv = -14%
> CCOC(=O)c1oc2ccccc2c1NC(=O)c1ccc(OCC)c(OCC)c1
  Mtb H37Rv = 6%
> CS(=O)(=O)c1ccc2nc(Nc3nc4ccc(F)cc4s3)sc2c1
  Mtb H37Rv = 80%
> Cc1ccccc1-c1nnc(NC(=O)c2ccccc2C(F)(F)F)s1
  Mtb H37Rv = 2%
> CC(C)CN(C1CCS(=O)(=O)C1)S(=O)(=O)c1ccc(F)cc1 (stereo unspecified)
  Mtb H37Rv = 2%
> CCOC(=O)c1c(NC(=O)c2ccc([N+](=O)[O-])o2)sc2c1CCN(C(=O)OCC)C2
  Mtb H37Rv = 2%
> Cc1ccc(NC(=O)COC(=O)c2ccc3c(c2)C(=O)N(c2ccccc2Cl)C3=O)c(C)c1
  Mtb H37Rv = 5%
> O=[N+]([O-])c1cccc(-c2ccc(/C=N/O)o2)c1
  Mtb H37Rv = 12µg/mL*
> Nc1nc(SCC(=O)Nc2cccc3ccccc23)[nH]c(=O)c1NC(=O)c1ccccc1
  Mtb H37Rv = -2%
> Cc1c(Cl)cccc1NC(=O)CC1CCS(=O)(=O)C1 (stereo unspecified)
  Mtb H37Rv = -5%
> CCOC(=O)c1sc(NC(=O)c2cc(=O)c3ccccc3o2)nc1C
  Mtb H37Rv = -13%
> Cc1cc(NS(=O)(=O)c2ccc(NC(=O)c3cc4ccccc4o3)cc2)no1
  Mtb H37Rv = 16%
> COc1ccc(CC(=O)N2CCN=C2SCc2ccc(C(F)(F)F)cc2)cc1
  Mtb H37Rv = 24µg/mL*
> CC1CCc2sc(NC(=O)c3nc4ccccc4s3)c(C(N)=O)c2C1 (stereo unspecified)
  Mtb H37Rv = 6%
> CCS(=O)(=O)c1cccc(C(=O)Nc2nc3c(OC)ccc(Cl)c3s2)c1
  Mtb H37Rv = -10%
> CC1CCN(c2nc(-c3ccc(C(C)C)cc3)c3c(N)[nH]nc3n2)CC1
  Mtb H37Rv = -9%
> Cn1c(NNC(=O)c2c(F)cccc2F)cc(=O)n(C)c1=O
  Mtb H37Rv = 0%
> CCc1cccc(OCC(O)Cn2c(NCCN(CC)CC)nc3c2c(=O)[nH]c(=O)n3C)c1 (stereo unspecified)
  Mtb H37Rv = -14%
> CCS(=O)(=O)c1ccc(C(=O)Nc2nnc(-c3ccccc3Cl)o2)cc1
  Mtb H37Rv = 7%
> CC(=O)Nc1ccc(NC(=O)Cc2csc(NS(=O)(=O)c3ccc(Cl)cc3)n2)cc1
  Mtb H37Rv = -4%
> O=S(=O)(Nc1ccc(OC(F)F)cc1)c1cccs1
  Mtb H37Rv = 9%
> CCN(Cc1ccccc1)C(=O)CCN1C(=O)/C(=C\c2ccco2)SC1=S
  Mtb H37Rv = 81%
> COc1cccc(-c2nnc(NC(=O)c3ccccc3Cl)o2)c1
  Mtb H37Rv = 2.7µg/mL*

An excerpt, so the mix of outcomes need not match the whole.
